# NPYLR7 agonist: activates Aedes aegypti NPYLR7 receptor; AID 1259423; activation, % at 10 µM; 0.15% of 270,000 active; HEK293T NPYLR7/Galpha15, GCaMP6s calcium fluorescence; in the data active = activation above about 40%;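 also: 0% = vehicle and 100% = reference agonist at the receptor; some compounds past the cut are filed as inactive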
# NPYLR7 agonist max-min: recorded beside NPYLR7 agonist, whose call it bears; activation, %; measured here: Max-Min RFU normalised activation; some inactives read as strong as hits;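 span of the calcium signal over five minutes; 0% = vehicle and 100% = native peptide agonist; compound fluorescence can raise it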
# Active calls of the source: *; & = joins results of further samples.
SMILES,NPYLR7 agonist,NPYLR7 agonist max-min
Cc1nn(C)c(Cl)c1CN(C)Cc1noc(CC(C)C)n1,-3.3,-3.7
CCCNCC(=O)NCC(=O)Nc1ccccc1,21.1,23.2
CC1(C(=O)NCc2ccccc2Br)CCN1Cc1ccc(-c2ccccn2)cc1 (configuration not stated),-7.7,-5.5
CN(C(=O)COC(=O)c1ccc2c(c1)C(=O)N(Cc1ccco1)C2=O)c1ccccc1,-4.2,-8.6
CCO[C@H]1COC[C@@H]1NC1CCN(c2cccc(C)c2C)CC1,27.1,15.9
CS(=O)(=O)N1CCCC(C(=O)N(C2CC2)C2CCc3ccccc32)C1 (configuration not stated),-0.3,7.5
CC1CCCCN1C(=O)C(NC(=O)c1ccccc1)C1CCN(C(=O)NC(C)(C)C)CC1 (configuration not stated),-8.0,-5.7
CCN(CC)C(=O)CSc1ncc[nH]1,15.6,6.0
COCc1cc(=O)c2c(C)nn(-c3ccccc3C(F)(F)F)c2[nH]1,7.1,6.3
COc1ccc(C)cc1S(=O)(=O)N1CCN(C)CC1c1ccccc1 (configuration not stated),1.7,0.4
O=C(CNc1ccc2c(c1)OC(F)(F)O2)N1CCc2sccc2C1,3.8,-0.8
O=C1CCC2(CCN1)CCN(c1ccc(-c3ccccc3)nn1)CC2,19.5,10.4
CC(C(=O)N1c2ccccc2CC1C)N1C(=O)NC2(CCCc3sccc32)C1=O (configuration not stated),-2.4,-2.5
CCOC(=O)C1(Cc2ccc(OC)cc2)CCN(C(=O)CSC)CC1,20.1,7.5
O=C(Nc1ccc(-c2ccccc2)nn1)C1CCCO1 (configuration not stated),2.7,0.3
Cc1ncsc1CCC(=O)NCc1cn[nH]c1-c1ccc(F)cc1,11.5,8.2
CC(NC(=S)NCCN1CCOCC1)C1CC2CCC1C2 (configuration not stated),3.7,2.8
O=C(c1cccc(SC(F)F)c1)N1CCC(n2c(=O)[nH]c3ccccc32)CC1,-18.0,-22.5
Cn1cncc1-c1cc(NCc2cccnc2)nc2[nH]ccc12,3.8,0.7
CCN1C(=O)NC(c2ccsc2)C2=C1CN(CC(=O)N1CCN(c3cccc(C(F)(F)F)c3)CC1)C2=O (configuration not stated),-0.9,4.4
Cc1ccccc1NC(=O)CSc1nc2[nH]ncc2c(=O)[nH]1,-3.2,-5.8
CCC(C)(NCC(=O)N1CCNC(=O)C1)c1nccs1 (configuration not stated),0.2,0.8
Cc1cc(N2CCN(Cc3noc(C)n3)CC2)nc(-c2cccnc2)n1,1.1,0.2
O=C(NC1CCN(c2ccccc2C(=O)NCCN2CCCCC2)CC1)c1ccccc1F,-0.8,1.4
Cc1ccc(-n2cccn2)c(CN2CCN(C)C(CCO)C2)c1 (configuration not stated),7.4,6.2
# Next part.
SMILES,NPYLR7 agonist,NPYLR7 agonist max-min
COc1cc(CNS(=O)(=O)c2cc(C)ccc2F)ccn1,-0.1,-0.3
O=C(Cn1nc(-c2ccco2)c2sc(N3CCCCC3)nc2c1=O)c1ccccc1,-1.4,-6.1
Cc1cccc(-n2c(SCc3ccc(C(=O)NCc4ccncc4)cc3)nnc2-c2cccs2)c1,15.2,19.9
COCC(C)NC(=O)c1c(O)nc2c(C)cccn2c1=O (configuration not stated),-1.5,15.0
CNC(=O)Cc1noc(-c2cc3c(s2)CCCCCC3)n1,5.0&1.5,2.8&-1.7
O=C(CN(CCc1ccccc1)S(=O)(=O)c1cc(Cl)ccc1Cl)NCC1CCCO1 (configuration not stated),-5.9,26.5
CC1CCCN(C(=O)CCc2nc3cc(S(=O)(=O)N4CCCCC4)ccc3n2C)C1 (configuration not stated),9.9,9.5
Cc1nn(-c2ccccc2)cc1CCCN,-1.3,-1.5
CCOc1ccc(-c2ccc(OCCNS(=O)(=O)c3ccc(C)c(C)c3)nn2)cc1,0.6,1.9
O=C(CN1C(=O)NC2(CCCCC2)C1=O)Nc1cc(F)cc(F)c1,-0.5,-2.3
CCOCCCN(CC(=O)N(Cc1ccc2c(c1)OCO2)Cc1ccco1)C(=O)COCc1ccccc1,-3.6,-2.0
CCSc1nc(CC(=O)NCc2csc3c2CCCC3)cs1,-0.4,-0.3
CC(=O)Nc1ccc(N=Cc2nc(-c3ccccc3)oc2O)cc1,-3.9,-8.1
CC1CC2CCCCC2N1CC(=O)Nc1cccc(C(=O)N(C)C)c1 (configuration not stated),3.9,2.2
CCN(CC)S(=O)(=O)c1ccc(Oc2ccccc2)c(NC(=O)COc2ccccc2)c1,3.5,2.4
CC1(C)CC(NC(=O)C23CCC(C)(c4nc5ccccc5nc42)C3(C)C)CC(C)(C)N1 (configuration not stated),-1.3,-5.9
COc1ccc(-c2cc(C(=O)NCc3ccccc3)n(-c3ccc([N+](=O)[O-])cc3)n2)c(OC)c1,25.1,37.6
CN(Cc1ccsc1)C(=O)c1ccccc1Oc1ccccc1,-0.1,1.6
CCOC(=O)Cc1ncccc1C(=O)NC1CCCC(C)C1 (configuration not stated),2.1,0.4
Cc1ccccc1-c1cccc(-c2nccn2CCO)c1,-0.9,-5.9
COc1cccc(NC(=O)COc2ccc(F)cc2Cl)c1,-15.8,-14.7
CCOCCCn1c(SCc2ccccc2Cl)nc2cc(S(=O)(=O)N3CCCC(C)C3)ccc21 (configuration not stated),16.0,4.6
Cc1cccc(C(=O)NCCCn2nc(-c3ccc(Cl)cc3)ccc2=O)c1,0.4,-1.6
O=C(COc1ccccc1F)Nc1n[nH]c(-c2ccc(F)cc2)n1,9.3,7.8
Cc1ccc2nc(C3CCCN3Cc3cc(=O)n4cccc(O)c4n3)[nH]c2c1 (configuration not stated),4.6,-3.0
# Later entries
SMILES,NPYLR7 agonist,NPYLR7 agonist max-min
CCn1nc(C(=O)N=c2sc3cc(OC)ccc3n2CCSC)cc1C,0.0,0.2
CCn1cc(NC(=O)N(CCO)Cc2ccccc2)c2ccccc21,0.1,-5.9
Cc1nn(-c2ccccc2)c(C)c1-c1ccnc(NCCC2CCCN2C)n1 (configuration not stated),4.7,-0.7
Cc1ccc(S(=O)(=O)NC2CCSc3ccc(Cl)cc32)cc1C (configuration not stated),-3.9,-8.0
COc1ccc(-c2cc(C(=O)N3CCN(c4ccc([N+](=O)[O-])cc4)CC3)n3nc(C(C)(C)C)cc3n2)cc1,-9.2&19.6,-1.4&19.6
CCCC(=O)Nc1ccc(CC(=O)NCc2ccc3nonc3c2)cc1,-0.7,-1.6
COC(=O)C1CN(C(=O)NC(C)c2cc(C)ccc2C)CCO1 (configuration not stated),13.1,3.7
COc1cc(Br)c(OC)c(C(=O)Nc2ccc(SC)cc2)c1,1.3,-2.4
CCOc1ccc(S(=O)(=O)Nc2ccc(Cl)cc2C)cc1OCC,-5.7,-7.6
CN(Cc1cnc(N2CCOCC2)s1)Cc1ccnc2ccccc12,6.5,2.5
N#CC1COCCN1C(=O)c1cc(-n2cccn2)ccn1 (configuration not stated),3.3,4.4
CC(C)(NC(=O)CCCNC(=O)c1ccc(F)cc1)c1ccc(F)c(F)c1,3.5,1.6
O=C1NC(=O)C(Cc2ccccc2)(Cc2ccccc2)N1,3.2,2.0
CCCCNC(=O)c1sc2nc(-c3cccc([N+](=O)[O-])c3)cn2c1C,-1.7,-3.6
Cc1cc(N2CCN(Cc3cc4n(n3)CCNC4)CC2)n2ncnc2n1,5.5,3.1
CCn1c(CCC(N)=O)n[nH]c1=S,7.8,5.3
Cc1cccc(CSc2nc(=O)n(Cc3ccncc3)c3c2CCC3)c1,-5.2,-5.8
O=C1NCC2(CCCN(C(=O)CCn3cc(Cl)cn3)CC2)O1 (configuration not stated),27.0,12.3
O=C(Cn1cc(Cl)cn1)N1CCn2nc(C(=O)N3CCCC3)cc2C1,-1.6,-9.3
Cn1cc(C2CCCN2C(=O)c2ccc(N3CCCC3)nn2)cn1 (configuration not stated),1.6,-1.9
CCc1nnsc1C(=O)OCc1ccc(C#N)cc1,7.0,4.0
Cc1ccc(C(=O)N2CCN(c3nc(CCc4ccccc4)nc4sc(C)c(C)c34)CC2)cc1[N+](=O)[O-],-10.5,-7.0
COCc1ccc(CN2CCCC(CO)(Cc3ccccc3C)C2)o1 (configuration not stated),-2.6,8.0
O=C(CC12CC3CC(CC(C3)C1)C2)NNC(=O)c1cnccn1,-3.1,-3.8
C=CCSc1nnc2[nH]c(=O)cc(N)n12,0.8,8.5
# The listing continues:
SMILES,NPYLR7 agonist,NPYLR7 agonist max-min
Cc1cc(C(=O)NCc2cc(N(C)C)nc3ccccc23)no1,0.1,-1.4
CCOc1ccc(NC(=O)CSc2nc(=O)n(CCN3CCOCC3)c3c2CCCC3)cc1,-0.7,6.3
Cc1ccc(F)cc1C(=O)NCCN1CCC(CO)CC1,3.1,0.3
CCCC(=O)Nc1ccc(Nc2nc(C)cc(N3CCOCC3)n2)cc1,13.4,6.4
COc1ccc(N2C(=O)CSC2c2ccc(NC(=O)c3cc(C(F)(F)F)cc(C(F)(F)F)c3)cc2)cc1 (configuration not stated),3.2,13.2
CC(=O)[C@H]1CC[C@H]2[C@@H]3CC=C4C[C@@H](O)CC[C@]4(C)[C@H]3CC[C@]12C,-4.4,-7.9
CCN(CC)Cc1ccc(C(=O)O)o1,2.6,6.4
c1ccc(-c2nnc(CN3CCCC3c3ccccn3)o2)cc1 (configuration not stated),-3.9,-5.1
COc1ccc(C2=NC(=CC3=Cc4ccccc4OC3)C(=O)O2)cc1OC,-4.3,-6.3
COc1ccc2c(c1)CCc1c(-c3ccc(C(=O)NCCc4cccs4)cc3)n[nH]c1-2,27.0,15.7
CC(NC(=O)NC(=O)N(C1CCCCC1)S(C)(=O)=O)C1CC2CCC1C2 (configuration not stated),7.1,13.9
C=c1occc1=C1NN=C(SCC(=O)NC(=O)c2cccn2C)O1,0.3,3.1
NC(N)=NCCCN1CCCC1,-0.5,19.4
CCCCOc1ccc(C(=O)Nc2nnc(SCC(=O)Nc3nnc(SCC)s3)s2)cc1,-4.7,4.5
Cc1sc2nc(SC(C(N)=O)c3ccccc3)n(C(C)C)c(=O)c2c1C (configuration not stated),3.0,-0.2
Cc1c(Br)c([N+](=O)[O-])nn1CC(=O)NCc1cccnc1,-3.1,-8.3
COCCCN(Cc1cccn1Cc1cccc(F)c1)CC(O)COC (configuration not stated),1.5,10.7
CCC(C(=O)N1CCN(Cc2cc(=O)c(OCc3cc(C)cc(C)c3)co2)CC1)c1ccccc1 (configuration not stated),26.4,8.2
COc1ccc(S(=O)(=O)N2CCN(C3CC(=O)N(c4cc(Cl)cc(Cl)c4)C3=O)CC2)cc1 (configuration not stated),3.1,1.6
Cn1ccc(NC(=O)CCc2ccc3c(c2)OCO3)n1,6.0,2.1
COc1cccc(-n2cc(CN(C)C(=O)CC3C(=O)NCCN3CC(C)C)cn2)c1 (configuration not stated),8.4,7.5
C(=C\c1cccc(N2CCNCC2)c1)/c1ccccc1,5.7,4.8
Cc1nc(C2CCNCC2)cc(N2CCCC2c2nc3ccccc3[nH]2)n1 (configuration not stated),7.2,5.1
O=C(Cn1nc2sc3ccccc3n2c(=O)c1=O)c1cccs1,-1.9,-1.1
O=C(NCCc1ccccc1)n1ccnc1,-1.6,-0.2
# More records follow:
SMILES,NPYLR7 agonist,NPYLR7 agonist max-min
CCCCN(CC(=O)N1CCc2sccc2C1c1ccc(Cl)cc1)C(=O)Cc1ccc(F)cc1 (configuration not stated),1.7,4.0
CC(C)(C)NC(=O)N1CCn2cccc2C1c1ccncc1 (configuration not stated),7.8,3.6
O=C1c2ccccc2C(=O)N1CC(O)COc1cccc2ccccc12 (configuration not stated),-0.6,0.0
CC(C)(C)c1ccc(-n2ncc3c2CCN(C(=O)CCc2ccc4c(c2)OCO4)C3)cc1,0.5,17.6
COc1cn(CC(=O)NCc2ccccc2Cl)c(CSc2nnnn2C)cc1=O,-2.2,-5.4
O=C(CS(=O)Cc1cc(Cl)c2c(c1)OCCO2)N1CCc2ccccc21 (configuration not stated),8.0,6.1
CNC(=O)C(C#N)C(=O)CC(C)C1CCCCC1 (configuration not stated),7.6,4.1
CCN(Cc1ccc(CN(C)C)cc1)C(=O)/C=C(/C)C1CC1,4.1,9.8
Cc1ccc(CSCCNC(=O)c2ccc(N(C)C)cc2)cc1,0.1,-1.3
CCOC(=O)C1(CCCc2ccccc2)CCN(C(=O)c2ccc(COC)s2)CC1,4.2,0.5
NC(=O)COc1ccc(-c2ccc(Br)cc2)cc1,4.0,3.9
Cc1ccccc1-n1ncc(C(C)NC(=O)CSc2ncccn2)c1C (configuration not stated),6.4&4.2,6.1&0.4
COCc1nc(NCc2nc(C)c3c(n2)CCCC3)c2cnn(C)c2n1,-0.9,-2.9

# Sorted by molecular weight (descending): some entries from above
SMILES,NPYLR7 agonist,NPYLR7 agonist max-min
CCCCN(CC(=O)N1CCc2sccc2C1c1ccc(Cl)cc1)C(=O)Cc1ccc(F)cc1 (configuration not stated),1.7,4.0
COc1cn(CC(=O)NCc2ccccc2Cl)c(CSc2nnnn2C)cc1=O,-2.2,-5.4
CC(C)(C)c1ccc(-n2ncc3c2CCN(C(=O)CCc2ccc4c(c2)OCO4)C3)cc1,0.5,17.6
CCOC(=O)C1(CCCc2ccccc2)CCN(C(=O)c2ccc(COC)s2)CC1,4.2,0.5
COc1cccc(-n2cc(CN(C)C(=O)CC3C(=O)NCCN3CC(C)C)cn2)c1 (configuration not stated),8.4,7.5
O=C(CS(=O)Cc1cc(Cl)c2c(c1)OCCO2)N1CCc2ccccc21 (configuration not stated),8.0,6.1
Cc1nc(C2CCNCC2)cc(N2CCCC2c2nc3ccccc3[nH]2)n1 (configuration not stated),7.2,5.1
COCc1nc(NCc2nc(C)c3c(n2)CCCC3)c2cnn(C)c2n1,-0.9,-2.9
O=C1c2ccccc2C(=O)N1CC(O)COc1cccc2ccccc12 (configuration not stated),-0.6,0.0
O=C(Cn1nc2sc3ccccc3n2c(=O)c1=O)c1cccs1,-1.9,-1.1
Cc1ccc(CSCCNC(=O)c2ccc(N(C)C)cc2)cc1,0.1,-1.3
NC(=O)COc1ccc(-c2ccc(Br)cc2)cc1,4.0,3.9
CCN(Cc1ccc(CN(C)C)cc1)C(=O)/C=C(/C)C1CC1,4.1,9.8
Cn1ccc(NC(=O)CCc2ccc3c(c2)OCO3)n1,6.0,2.1
C(=C\c1cccc(N2CCNCC2)c1)/c1ccccc1,5.7,4.8
CNC(=O)C(C#N)C(=O)CC(C)C1CCCCC1 (configuration not stated),7.6,4.1

# Screening results from PubChem.

# This is a subset; count on the stated rates, not on these rows.
